High-throughput results deposited in PubChem BioAssay by National Center for Advancing Translational Sciences (NCATS).
2A Renilla – Primary qHTS Assay for Foot and Mouth Disease Virus Antivirals against NCGC Sytravon and CBC Compound Libraries: Renilla Luciferase Signal; HEK cells with a luciferase reporter of 2A StopGo recoding; Potency, µM (doses to about 57.5 µM), without a hit: at the top dose signal change, negative = less light; 120,000 compounds, 0.32% hits; active means well fitted falling curve with a large enough effect; inconclusive means small, poorly fitted or top-dose-only effect; inactive means no such curve, though single readings can be large or run the other way; also: nearly all actives have a fitted effect of over 55% in size; overnight with compound
2A firefly – Primary qHTS Assay for Foot and Mouth Disease Virus Antivirals against NCGC Sytravon and CBC Compound Libraries: Firefly Luciferase Signal; HEK cells with a luciferase reporter of 2A StopGo recoding; Potency, µM (doses to about 57.5 µM), inactives show at the top dose signal change, negative = less light; 120,000 compounds, 0.23% hits; active = well fitted falling curve with a large enough effect; inconclusive = small, poorly fitted or top-dose-only effect; inactive = no such curve, though single readings can be large or run the other way; also: nearly all actives have a fitted effect of over 60% in size; overnight with compound
* = called active by the depositor; u = inconclusive; & = joins results of further samples; [ ] = dose if it differs, or a comment. % is scaled to controls: 0 for no effect and ±100 for the full control effect; potency is read from the fitted curve at half-maximal effect.

SMILES	2A Renilla	2A firefly
Cc1ccccc1CN1CCc2nc(N3CCN(c4ccccn4)CC3)ncc2C1	u	u
COc1ccc(OC)c(CN2C(=O)CSCCC2(C)c2nnnn2C2CCCC2)c1 (stereo not given)	24.5%	3.8%
COc1cccc(-c2cn3c(n2)sc2cc(C(=O)NCc4ccccc4F)ccc23)c1	8.4%	64.0%[activator]
COc1cc(C(=O)NCc2n[nH]c(=O)c3ccccc23)cc(OC)c1OC	36.4%[activator]	32.0%[activator]
Cc1nc(SCC(=O)Nc2ccc(C)c(Cl)c2)cc(-c2ccccc2)n1	-4.6%	-8.6%
Cn1nc(C(=O)Nc2ccc(OCC(N)=O)cc2)c2ccccc2c1=O	37.7%[activator]	12.1%
CCc1ccc(-c2nc(SCc3cc(=O)n4nc(C)sc4n3)n[nH]2)cc1	3.5%	104.1%[activator]
COc1ccc(Nc2nnc(-c3cc4cccc(OC)c4oc3=O)s2)cc1	-5.0%	13.1%
C/C(=N/NC(=O)c1cccs1)c1ccc(Cl)cc1	39.6%[activator]	185.5%[activator]
OC(COc1ccccc1)CN(CCc1ccc(Cl)cc1Cl)CC(O)COc1ccccc1 (stereo not given)	13.7%	-0.7%
Cc1cc2c(cc1C)CSC(c1ccccc1)SC2	-3.8%	9.4%
CCCCN(CCCC)c1cc(F)nc(N)n1	2.0%	7.4%
CCn1c(=O)c2cc(C(=O)N(C)c3cc(C)ccc3OC)sc2c2ccccc21	33.4%[activator]	8.0%
O=C(Cn1nnnc1-c1ccc(Br)cc1)N1CCCCC1	6.7%	22.0%
CCCCn1c(CCNC(=O)c2ccc(F)cc2)nc2ccccc21	-9.5%	-23.2%
COc1ccc(OC)c(CNC(=O)NCc2noc3ccc(C)cc23)c1	-8.7%&9.3%	-0.7%&-6.8%
CCCCn1nnnc1CSc1nnc(-c2cccnc2)n1-c1ccccc1C	15.0%	9.4%
O=C(NC1CCN(Cc2ccccc2)CC1)c1cccc(C(F)(F)F)c1	-8.6%	14.6%
CCOc1ccc(N2CC(C(=O)Nc3ccc(Cl)cn3)CC2=O)cc1 (stereo not given)	36.9%[activator]	7.0%
COc1ccc(C(C)=O)c(OCc2cc(Br)ccc2OC)c1	-3.4%[1.06 µM]	0.0%

Five neighbouring compounds from above, quoted:
SMILES	2A Renilla	2A firefly
COc1ccc(OC)c(CNC(=O)NCc2noc3ccc(C)cc23)c1	-8.7%&9.3%	-0.7%&-6.8%
CCCCn1nnnc1CSc1nnc(-c2cccnc2)n1-c1ccccc1C	15.0%	9.4%
O=C(NC1CCN(Cc2ccccc2)CC1)c1cccc(C(F)(F)F)c1	-8.6%	14.6%
CCOc1ccc(N2CC(C(=O)Nc3ccc(Cl)cn3)CC2=O)cc1 (stereo not given)	36.9%[activator]	7.0%
COc1ccc(C(C)=O)c(OCc2cc(Br)ccc2OC)c1	-3.4%[1.06 µM]	0.0%

Other results.
SMILES	2A Renilla	2A firefly
C#CCNC(=O)c1ccccc1NC(=O)c1nc(Cl)ccc1Cl	2.1%	0.0%
COc1cccc(NC(=O)CSc2nnc(-c3cccs3)o2)c1	-5.3%	83.4%[activator]
CCOC(=O)c1ccc(NC(=O)c2cnn(-c3ccc(C)cc3C)c2C2CCN(C(=O)OC(C)(C)C)CC2)cc1	-2.6%	-14.1%
Cc1cc(C)c(S(=O)(=O)Nc2ccc3oc(C)c(C(=O)OC(C)C)c3c2)cc1C	-14.4%	-10.5%
Cc1ccccc1C(=O)OC(C)CN1CCCCC1 (stereo not given)	7.2%	0.0%
COc1ccc(OC)c(NC(=O)CCN2CCC(C)CC2)c1	-6.8%	-11.6%
CCCNc1c(NC(=O)COc2ccc(Cl)cc2)c(=O)oc2ccccc12	14.1%	-8.5%
Cn1nc(C(=O)NCc2ccccn2)c2ccccc2c1=O	9.9%	14.1%
Cc1nn(CC(=O)N2CCCCCC2)c(C)c1S(=O)(=O)NC(C)(C)C	-3.5%	-4.7%
O=C(COC(=O)C12CC3CC(CC(Cl)(C3)C1)C2)Nc1ccc([N+](=O)[O-])cc1Cl	10.8%	12.6%

Reprinted from the part before: 5 entries, followed by the next part.
SMILES	2A Renilla	2A firefly
COc1ccc(OC)c(NC(=O)CCN2CCC(C)CC2)c1	-6.8%	-11.6%
CCCNc1c(NC(=O)COc2ccc(Cl)cc2)c(=O)oc2ccccc12	14.1%	-8.5%
Cn1nc(C(=O)NCc2ccccn2)c2ccccc2c1=O	9.9%	14.1%
Cc1nn(CC(=O)N2CCCCCC2)c(C)c1S(=O)(=O)NC(C)(C)C	-3.5%	-4.7%
O=C(COC(=O)C12CC3CC(CC(Cl)(C3)C1)C2)Nc1ccc([N+](=O)[O-])cc1Cl	10.8%	12.6%
COc1ccc(CN(C(=O)Nc2cccc(Cl)c2)c2ccccn2)cc1OC	13.0%	165.1%[activator]
CCOc1ccc(C(=O)c2cn(CC(=O)Nc3ccc(C)c(C)c3)c3ccc(OCC)cc3c2=O)cc1	-3.9%	-9.0%
COc1ccc(C(=O)N2CCC(C(=O)N(C)Cc3ccccc3C)CC2)c2ccccc12	-3.0%	u
Cn1c(=O)cc(SCC(=O)NCc2ccc(F)cc2)c2cc(Cl)ccc21	-6.0%	-19.4%
CCCn1nc(C(=O)Nc2ccc(C)cn2)c2ccccc2c1=O	4.1%	20.9%
COC(=O)c1ccc(C2c3c(oc4ccc(C)cc4c3=O)C(=O)N2Cc2ccc3c(c2)OCO3)cc1 (stereo not given)	9.4%	5.0%
COc1ccc(NC(=O)C(=O)c2c(C)[nH]c3ccccc23)cc1	45.0%[activator]	86.2%[activator]
COc1ccc(S(=O)(=O)N2CCCCCC2)cc1NC(=O)CSc1nnc2ccccn12	50.9%[activator]	9.2%
COc1ccc(-c2nc(C)c(CCNS(=O)(=O)c3ccc(Cl)s3)s2)cc1	118.9%[activator]	25.3%
CC(C)CN(C)C(=O)/C=C/c1ccc(-c2ccccc2)s1	0.0%	0.0%
CCC(=O)N1c2ccccc2CC1C(=O)NCCc1ccccc1OC (stereo not given)	-10.2%	-4.8%
COc1ccc(Cl)cc1NC(=O)CCCN1C(=O)C(c2ccccc2)Oc2cccnc21 (stereo not given)	21.9%	-17.0%
CC(O)CNc1nc2c(c(=O)n(C)c(=O)n2C)n1Cc1cccc(Br)c1 (stereo not given)	u	u
CCCCCCn1nnc2sc(-c3ccccc3)cc2c1=O	9.1%	-2.5%
Cc1ccc(-n2c(=O)c3oc4ccccc4c3n(CC(=O)Nc3ccccc3)c2=O)cc1C	68.9%[activator]	32.2%[activator]
N=C1C(c2nc(-c3ccc(Cl)cc3)cs2)=C(O)CN1NC(=O)c1ccc2c(c1)OCO2	8.8%	37.3%[activator]
O=c1c(N2CCc3ccccc3C2)csc2ccc(Br)cc12	46.2%[activator]	75.6%[activator]
CC(C)CNc1nc(C(=O)Nc2ccc3[nH]ccc3c2)cs1	19.0%	205.6%[activator]
N#Cc1c(N)n[nH]c1CCCNC(=O)c1cn(-c2ccccc2)nc1-c1ccccc1	-3.7%[1.06 µM]	185.2%[activator]
Cc1ccc(C(=O)c2sc(Nc3ccccc3F)c(S(=O)(=O)c3ccccc3)c2N)c(C)c1	62.6%[activator]	-0.3%
C/C(=N\O)c1cc2c(ccc3ccccc32)oc1=O	7.8%	0.0%
CCONC(=O)C(C)Oc1ccc(OC)cc1 (stereo not given)	-3.6%	-3.7%
C=C(C)[C@@H]1CCC2(C(=O)OC)CC[C@]3(C)C(CCC4[C@@]5(C)C/C(=C\c6ccccc6OC)C(=O)C(C)(C)C5CC[C@]43C)C12 (stereo not given in full)	1.4%	1.9%
COc1ccc(NC(=O)COc2ccc3c(C)c(C)c(=O)oc3c2)cc1	-7.5%	9.0%
COc1ccccc1CNS(=O)(=O)c1c(C)nc2sccn2c1=O	-11.6%	-30.6%
Cc1ccc(S(=O)(=O)NC2CCN(C(=O)Cc3ccc(F)cc3)CC2)cc1	73.9%[activator]	-3.1%
CCC(=O)Nc1ccc(C)cc1-c1nc2ccccc2n(CC(=O)c2ccc(C)cc2)c1=O	-18.9%	-20.2%
CCC(=O)Nc1ccc(O)cc1	-1.1%	-12.1%[11.5 µM]
CC(C)c1nn2c(=O)cc(COC(=O)c3ccc4c(c3)OCO4)nc2s1	-6.8%	-9.0%
CCOc1ccc(CNS(=O)(=O)c2c(C(=O)N3CCC(C)CC3)c(C)n(C)c2C)cc1OC	17.8%	-14.5%

Retrieved one by one from above (5):
SMILES	2A Renilla	2A firefly
COc1cc(C(=O)NCc2n[nH]c(=O)c3ccccc23)cc(OC)c1OC	36.4%[activator]	32.0%[activator]
Cc1cc2c(cc1C)CSC(c1ccccc1)SC2	-3.8%	9.4%
COc1ccc(NC(=O)COc2ccc3c(C)c(C)c(=O)oc3c2)cc1	-7.5%	9.0%
CCOc1ccc(C(=O)c2cn(CC(=O)Nc3ccc(C)c(C)c3)c3ccc(OCC)cc3c2=O)cc1	-3.9%	-9.0%
OC(COc1ccccc1)CN(CCc1ccc(Cl)cc1Cl)CC(O)COc1ccccc1 (stereo not given)	13.7%	-0.7%

(further entries)
SMILES	2A Renilla	2A firefly
Cc1ccc(C)c(NC(=O)Cn2c(=O)n(Cc3ccco3)c(=O)c3oc4ccccc4c32)c1	209.3%[activator]	-8.7%
COc1cc(C(=O)N(CC#N)C2CC2)cc(OC)c1C	85.3%[activator]	0.3%
Cc1ccc(NC(=O)c2ccc3c(O)c(S(=O)(=O)c4ccccc4)c(=O)[nH]c3c2)cc1Cl	-12.0%	25.5%
Cn1c(=O)[nH]c(=O)c2c(C(=O)O)cc(C3CC3)nc21	-0.2%	4.0%
Cc1ccc(C23CC4CC(CC(C(=O)Nc5ccc(Cl)c(Cl)c5)(C4)C2)C3)cc1	5.0%	-6.9%
Cc1cccc(NC(=O)COc2ccc3c(C)cc(=O)oc3c2)c1	5.0%	45.0%
CC(C)c1ccc(NC(=O)COC(=O)c2nn(C)c(=O)c3ccccc23)cc1	-9.5%	4.9%
CCc1ccc(C(=O)c2cn(Cc3ccc(F)cc3)c3cc(OC)c(OC)cc3c2=O)cc1	0.4%	-23.5%
O=C(Nc1cccc(-c2nc3ccccc3[nH]2)c1)c1c(F)cccc1F	20.8%	70.5%[activator]
COc1ccccc1NC(=O)COc1nc(C(C)C)c2c(c1C#N)CCCC2	-10.5%	-19.1%
CN(C)CCNC(=O)CCCN1C(=O)c2cccnc2Oc2ccc(Cl)cc21	-9.2%	-9.3%
CN1CCCN(C(=O)c2cc3cc(Br)ccc3oc2=O)CC1	-1.1%	-2.1%
O=C(CSc1nc2ccccc2nc1N1CCCC1)NCc1ccc(F)cc1	4.0%	14.7%
COc1ccc(N(CC(=O)Nc2ccc(C)c(C)c2)S(=O)(=O)c2ccc(C)cc2)cc1OC	-6.1%	-15.6%
CCOC(=O)c1c(NC(=O)C2c3ccccc3Oc3ccccc32)sc(C)c1CC	-3.9%	-13.1%
CC(C)CCn1c(SCc2c(F)cccc2Cl)nc2ccsc2c1=O	-6.5%	-24.3%
Cc1ccc(S(=O)(=O)Nc2ccc3c(c2)nc(CCn2ccccc2=O)n3C)cc1	10.6%	6.5%
CCCCCc1ccc(-c2ccc(CCCCC)cn2)cc1	3.4%	22.8%
CC12CC3CC(C)(C1)CC(NCc1ccccc1OCc1ccc(Cl)cc1Cl)(C3)C2	-2.6%	-21.3%
Cc1cccc(-c2nc3c4ccccc4nc(N4CCN(c5cccc(Cl)c5)CC4)n3n2)c1	-0.1%	1.8%
Cc1sc(NC(=O)COc2ccccc2Cl)c(C(N)=O)c1C	-3.0%	0.0%
Cc1ccc2onc(CNC(=O)N(C)Cc3ccccc3)c2c1	30.2%[activator]	28.2%
CCn1c(SCCC(=O)O)nc2c(=O)n(C)c(=O)n(C)c21	-11.4%	-4.7%
Fc1ccc(CNCc2ccc(-c3ccccc3F)o2)cc1	9.4%	155.4%[activator]
Cc1ccc(-n2nnnc2CNC(=O)C(C)(C)C)cc1C	-0.7%	-2.6%
O=C(Cn1nc(-c2ccc(Cl)cc2)c2ccccc2c1=O)Nc1ccc(Br)cc1	-9.2%	-5.4%
CC1CN(C(=O)N2CCC(C(=O)NCCC3=CCCCC3)CC2)c2cc(Cl)ccc2O1 (stereo not given)	0.6%	17.1%
Cc1ccc(Cc2c(C)nc3nc(CC(=O)Nc4ccc(F)cc4)nn3c2C)cc1	-9.0%	2.9%
CCCNc1c(NS(=O)(=O)c2ccc(F)c(C)c2)c(=O)oc2ccccc12	41.5%[activator]	2.4%
O=C(Cn1ccc2cc(S(=O)(=O)N3CCCCC3)ccc21)NCc1ccccc1Cl	72.7%[activator]	-0.7%
CSc1ccc(C2NC3=NCN(Cc4ccccn4)CN3c3nc4ccccc4n32)cc1 (stereo not given)	-3.8%	-8.0%
CCn1cnc2c1c(=O)n(CC(=O)Nc1cc(OC)cc(OC)c1)c(=O)n2Cc1ccccc1	20.3%	33.1%[activator]
Cc1nc(N2CCCC2)ncc1C(=O)NCc1ccc(Cl)cc1	17.3%	2.2%
CC(C)(C)OC(=O)N1CCC(c2c(C(=O)N3CCN(C(=O)c4ccco4)CC3)cnn2-c2ccc(Cl)cc2)CC1	1.4%	-12.7%
C=CCOC(=O)Cn1cnc2c1c(=O)n(C)c(=O)n2C	-0.2%	-3.5%

An excerpt; count on the stated rates, not on these rows.
